CtBP-E1A inh – inhibitors of CtBP/E1A interaction; 340,000 tested, 0.49% active; activity change, % (no concentration beside the values); AlphaScreen GST-E1A/His-CtBP binding, 1536-well; hits give low values; control for the full effect not named in the record; in the data active means activity change below about -65%; inconclusive means about -30% to -65%; inactive means above about -30%; also: % is scaled to controls: 0 for no effect and ±100 for the full control effect; compound concentration not given in the record
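Steps: dispense buffer (Tris pH 8.0, NaCl 300 mM, TCEP 1 mM, BSA, Tween 20); add 5X protein mix (GST-E1A, His-CtBP, 125 nM each); pin 23 nL compound; 2 h at 37 °C, dark; add 5X beads (50 ug/mL); 1 h; read.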
D2 potentiator – human D2 receptor positive allosteric modulation; DiscoveRx D2 beta-arrestin cells, luminescence, 90 min; 100% = 57 uM dopamine signal; potentiation, % (no concentration beside the values); 360,000 tested, 0.23% active; AID 624464; active = potentiation of 50% or more; inconclusive = 30% to 50%; inactive = 30% or less;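 also: compound concentration not given in the record; tested on top of an EC20 dose of dopamine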
Target sequence (P14416 whole entry, looked up): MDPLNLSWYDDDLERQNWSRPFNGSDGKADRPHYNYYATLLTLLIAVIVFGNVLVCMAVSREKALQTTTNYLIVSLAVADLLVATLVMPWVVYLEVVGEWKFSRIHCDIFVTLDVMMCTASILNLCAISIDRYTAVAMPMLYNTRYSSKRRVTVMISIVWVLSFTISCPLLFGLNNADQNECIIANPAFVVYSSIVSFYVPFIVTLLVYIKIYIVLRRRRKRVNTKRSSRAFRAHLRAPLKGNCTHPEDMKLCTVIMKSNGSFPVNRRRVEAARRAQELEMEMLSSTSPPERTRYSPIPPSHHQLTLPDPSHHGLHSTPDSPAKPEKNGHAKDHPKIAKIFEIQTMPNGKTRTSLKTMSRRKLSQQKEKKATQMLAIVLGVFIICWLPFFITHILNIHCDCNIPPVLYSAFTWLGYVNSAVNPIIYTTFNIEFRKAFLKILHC
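PathHunter D2 cells, attached overnight at 37 deg C, received compound in DMSO plus dopamine at EC20 (50 nM final) for 90 min at 37 deg C. Beta-arrestin recruitment was read as luminescence after 1 h with detection reagent at ambient temperature.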
Six1-Eya2 inh – Six1/Eya2 interaction inhibition; AlphaScreen GST-Six1/His-Eya2 binding, biochemical; hits give low values; control for the full effect not named in the record; Q15475+O00167; 360,000 tested, 0.56% active; activity change, % (test concentration not listed); in the data active = activity change below about -65%; inconclusive = about -30% to -65%; inactive = above about -30%; also: % is scaled to controls: 0 for no effect and ±100 for the full control effect; compound concentration not given in the record
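Compounds are tested against tagged Six1 and Eya2 proteins bridged by glutathione donor and nickel acceptor beads; after a one-hour incubation at 37 °C without light, AlphaScreen emission is recorded.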
gsp agonist – agonists of gsp mutant (McCune-Albright syndrome) | gsp mutant cells, cAMP HTRF, 30 min; control for the full effect not named in the record | Potency, µM (top dose mostly 76.9 µM), for inactives: at the top dose activation (cAMP increase), actives largely listed as activators | 340,000 tested, 0.13% active | AID 624287; active = well fitted activation curve with a large enough effect; inconclusive = small, poorly fitted or top-dose-only effect, or another doubt; inactive = no such curve, though single readings can be large or run the other way; cell line not stated here;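 also: phosphodiesterase inhibitor Ro 20-1724 added with compounds to block cAMP breakdown; potency is read from the fitted curve at half-maximal effect; nearly all actives have a fitted effect of over 60% in size; about a fifth of the inactives were tested at one dose only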
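Cells in DMEM/10% FBS with G418 were pretreated with compounds in DMSO plus […] (300 uM stock) for 30 min at 37C. cAMP was measured by HTRF (cAMP-d2 plus anti-cAMP antibody-K) after 30 min at room temperature.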
gsp antagonist – antagonizes gsp, the McCune-Albright syndrome mutation; gsp-mutant cells, cAMP HTRF, 30 min; control for the full effect not named in the record; Potency, µM (doses to about 76.9 µM), inactives show top-dose activity change, negative = inhibition, actives largely listed as inhibitors; 340,000 tested, 0.4% active; AID 624288; active = falling curve of any shape with a large fitted effect; inconclusive = falling curve, mostly with a smaller effect; inactive = flat or rising curve; cell line not stated here;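 also: intracellular cAMP measured with PDE inhibitor Ro 20-1724 present during compound exposure; potency is read from the fitted curve at half-maximal effect; % is scaled to controls: 0 for no effect and ±100 for the full control effect; nearly all actives have a fitted effect of over 65% in size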
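HTRF cAMP read-out (cAMP-d2 plus anti-cAMP antibody-K in lysis buffer, 30 min RT). Before lysis, cells are exposed to compounds with […] for 30 min at 37C in DPBS containing Ca/Mg, BSA and Tween 20.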
D2 agonist – human D2 receptor agonism in beta-arrestin assay | DiscoveRx PathHunter D2 beta-arrestin, luminescence, 90 min; 100% = 57 uM dopamine signal | activation, % (concentration not given with the values) | 360,000 tested, 0.084% active | AID 624465; in the data active = activation above about 40%; inconclusive = about 15% to 40%; inactive = below about 15%; also: compound concentration not given in the record; the text of the record calls up to 30% inactive
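DiscoveRx PathHunter D2 beta-arrestin cells (2,100/well) attached overnight, then compound-stimulated 90 min at 37 C in HBSS/10 mM HEPES/0.1% Tween-20 buffer; beta-galactosidase complementation read by luminescence after 1 h at ambient temperature. Dopamine 57 uM final (EC100) as control.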
An asterisk follows results filed as active; ? = inconclusive; · = no result given; [ ] = dose if it differs, or a comment.

#	molecule	CtBP-E1A inh	D2 potentiator	Six1-Eya2 inh	gsp agonist	gsp antagonist	D2 agonist
1	c1ccc(-c2noc(CN3CCN(c4ccccc4)CC3)n2)cc1	-1	-3	-11	-31%[inhibitor]	6%	3.4
2	COc1ccc(NC2=Nc3ccccc3CC2)cc1	9	-28	-7	-62%[inhibitor]	4%	-1.6
3	S=C1NC(c2ccccc2)N2C(=S)NC(c3ccccc3)N12 (stereo not given)	1	4	11	10%	-5%	2.2
4	Cc1cccn2c(=O)cc(COC(=O)C(C)Oc3ccccc3)nc12 (stereo not given)	12	-8	1	17%	-1%	-4.6
5	O=C(NC1(C(F)(F)F)NC(=O)N(c2ccccc2)C1=O)c1cccs1 (stereo not given)	0	-12	17	-29%	-1%	-5.4
6	COc1cccc(C(C(=O)NC2CCCC2)N(C(=O)c2ccco2)c2ccc(C(C)=O)cc2)c1OC (stereo not given)	3	-5	-1	-1%[15.4 µM]	-25%	-1.2
7	O=C(NCc1n[nH]c(=S)n1-c1ccccc1)c1cccs1	4	-17	-2	12%[15.4 µM]	·	4.1
8	O=C(Nc1ccc([N+](=O)[O-])cc1)Nc1ccc(Cl)cc1F	2	-4	-2	29%	0%	0.6
9	CCCCCCCCn1c(=O)c(C(=O)OC)c(N)c2ccccc21	-22	-4	-7	-6%[15.4 µM]	?	-1.4
10	CC[n+]1c(/C=C/Nc2ccccc2)oc2ccccc21	0	-3	18	-3%	-4%	-1.5
11	O=C(Nc1cccc(C(F)(F)F)c1)c1cc2ncc(Br)cn2n1	1	-5	-2	13%	8%	-1.5
12	Cc1ccc(OCC(=O)N(C)CC(=O)Nc2ccc(F)cc2)c([N+](=O)[O-])n1	0	-9	13	11%	10%	2.0
13	Cc1occc1C(=O)Nc1ccc(S(=O)(=O)N2CCN(C)CC2)cc1	-4	-4	-5	-15%	7%	-0.8
14	C=CCn1c2ccccc2c2nnc(SCC(=O)NC(C(=O)OC)C(C)C)nc21 (stereo not given)	8	0	-2	13%	-11%	-5.0
15	CCC(C)NC(=O)C1CCN(S(=O)(=O)c2ccc3c(c2)CC(C)N3C(C)=O)CC1 (stereo not given)	5	-6	2	-89%[inhibitor]	18%	-1.5
16	Cc1ccc(Nc2cnn(C34CC5CC(CC(CC(=O)O)(C5)C3)C4)c(=O)c2Cl)cc1	38	-6	-2	11%	-4%	2.0
17	Cn1c(=O)c2c(nc(N3CCOCC3)n2CCCNC2=NCCC2)n(C)c1=O	3	-2	2	24%	6%	1.1
18	CN(NC(=O)c1ccc(Cl)cc1Cl)C1=NS(=O)(=O)c2ccccc21	-7	-13	-11	-43%[inhibitor]	9%	-6.0
19	O=C(NCc1ccccc1F)C(=O)NCC1CCCN1S(=O)(=O)c1ccccc1 (stereo not given)	1	-5	-4	-7%[15.4 µM]	3%	-0.7
20	COCCN(C(=O)CSc1nn(-c2ccc(F)cc2)c(=S)s1)c1c(N)n(CC(C)C)c(=O)[nH]c1=O	-6	-12	5	1%[15.4 µM]	-12%	-3.4
21	Cc1cccc(CS(=O)(=O)Cc2ccc(C(=O)NC3CCCCCC3)o2)c1	·	-11	1	5%	5%	2.6
22	N#CC(=C1NC(=O)c2ccccc21)c1nc2ccccc2n1CCO	9	-9	6	7%	·	-1.7
23	C/C(CC(=O)Nc1ccc(N(C)C)cc1)=N\NC(=O)c1ccccc1O	-25	-6	-27	13%	?	-4.6
24	CCSc1ccc2nnc(-c3ccc(F)cc3)n2n1	-17	-1	-6	16%	-4%	-0.5
25	CS(=O)(=O)Nc1ccc(Oc2ncccn2)cc1	7	8	5	-13%	9%	5.3
26	Cc1ccc(NC(=O)CSc2nccn2Cc2ccccc2)cc1C	-17	-29	-20	-26%	-17%	-0.1
27	O=C(NNc1nc2c(F)cccc2s1)c1ccccc1	9	5	-4	22%	17%	4.5
28	COc1ccc2c(-c3ccccc3)cc(SCC(=O)NC3CCS(=O)(=O)C3)nc2c1 (stereo not given)	-5	-5	-5	?	-14%	-3.0
29	O=C(O)C(Cc1ccccc1)Nc1ccc([N+](=O)[O-])cc1[N+](=O)[O-] (stereo not given)	-1	1	3	6%[15.4 µM]	-1%	-5.4
30	Cc1cc(C)c(S(=O)(=O)N2CCN(C(=O)c3c(C)nn(-c4ccccc4)c3Cl)CC2)c(C)c1	10	?	-25	-5%	25µM*	13
31	CNC(=O)COC(=O)c1cc(F)c(F)cc1Cl	1	-21	6	?	10%	-1.5
32	Cc1ccc(-c2cc(C(=O)NC3CCCC3)no2)cc1	-8	-6	39	9%	4%	-5.7
33	COc1ccc(S(=O)(=O)NCC2CCCN(CC(C)(C)C)C2)cc1 (stereo not given)	11	-13	-3	-1%[15.4 µM]	11%	-3.5
34	COc1ccc(CNC(=O)c2cccnc2SC)cc1OC	7	-3	8	-7%[15.4 µM]	15%	-4.8
35	Cc1ccc2nc(Cl)c(/C=N/Nc3nc(C)cc(C)n3)c(=O)n2c1	-14	-46	-29	19%	-17%	-11
36	O=C1CCN(Cc2ccccc2)S(=O)(=O)c2ccc(F)cc21	5	-11	-1	?	-3%	-4.1

Part of the list above in order of length of the SMILES, low to high.
#	molecule	CtBP-E1A inh	D2 potentiator	Six1-Eya2 inh	gsp agonist	gsp antagonist	D2 agonist
25	CS(=O)(=O)Nc1ccc(Oc2ncccn2)cc1	7	8	5	-13%	9%	5.3
34	COc1ccc(CNC(=O)c2cccnc2SC)cc1OC	7	-3	8	-7%[15.4 µM]	15%	-4.8
32	Cc1ccc(-c2cc(C(=O)NC3CCCC3)no2)cc1	-8	-6	39	9%	4%	-5.7
26	Cc1ccc(NC(=O)CSc2nccn2Cc2ccccc2)cc1C	-17	-29	-20	-26%	-17%	-0.1
36	O=C1CCN(Cc2ccccc2)S(=O)(=O)c2ccc(F)cc21	5	-11	-1	?	-3%	-4.1
33	COc1ccc(S(=O)(=O)NCC2CCCN(CC(C)(C)C)C2)cc1 (stereo not given)	11	-13	-3	-1%[15.4 µM]	11%	-3.5
35	Cc1ccc2nc(Cl)c(/C=N/Nc3nc(C)cc(C)n3)c(=O)n2c1	-14	-46	-29	19%	-17%	-11
28	COc1ccc2c(-c3ccccc3)cc(SCC(=O)NC3CCS(=O)(=O)C3)nc2c1 (stereo not given)	-5	-5	-5	?	-14%	-3.0
30	Cc1cc(C)c(S(=O)(=O)N2CCN(C(=O)c3c(C)nn(-c4ccccc4)c3Cl)CC2)c(C)c1	10	?	-25	-5%	25µM*	13

Additional records
#	molecule	CtBP-E1A inh	D2 potentiator	Six1-Eya2 inh	gsp agonist	gsp antagonist	D2 agonist
37	CCOC(=O)N1CCN(CC(=O)c2ccc3c(c2)CCN3C(C)=O)CC1	9	-3	6	6%	1%	-1.4
38	Cc1ccc(NC(=O)c2ccc3c(c2)C(=O)N(Cc2cccnc2)C3=O)c(C)c1	-6	1	11	10%[15.4 µM]	-6%	-5.5
39	OCOCCCn1c(C2CCCN2c2nc(-c3ccc(F)cc3)cs2)nc2cc(Cl)c(N3CCCCC3)cc21 (stereo not given)	-12	-11	-4	0%	-11%	-2.9
40	Cc1ccc(NC(=O)CNc2cc(S(=O)(=O)N3CCOCC3)ccc2N2CCOCC2)cc1S(=O)(=O)N(C)C	4	20	-4	14%	-1%	3.3
41	C=CCNC(=S)NNC(=O)c1ccc(=O)n(Cc2ccccc2)c1	2	-8	7	16%[15.4 µM]	-1%	-11
42	CCC(Sc1nc2cc(OC)c(OC)cc2c(=O)n1Cc1ccco1)C(=O)NCCOC (stereo not given)	-2	-12	-3	12%	14%	-2.1
43	Cc1ccc(NC(=S)c2ccc3ccccc3n2)c(C)c1	-14	-8	-11	10%[15.4 µM]	-6%	-4.2
44	COc1ccccc1N1CCN(S(=O)(=O)c2c(C)[nH]c(C)c2C(=O)N2CCCC2)CC1	2	-10	-1	1%	3%	-2.0
45	COc1cc(OC)cc(C(=O)NNC(=S)NC(=O)c2cccnc2)c1	·	2	-6	-11%	1%	4.2
46	O=C(Nc1ccccc1Cl)OC1CCCCC1	24	-7	25	20%[15.4 µM]	3%	-2.5
47	COC(=O)C1CCN(C(=O)COC(=O)C2CCN(S(=O)(=O)c3ccc4c(c3)OCCO4)CC2)CC1	0	-3	1	41%	-12%	-3.6
48	Nc1nnc(SCc2ccc(F)cc2)n1-c1ccccc1	6	-8	-1	-18%	-1%	-1.6

Compound profiles, as listed above. Screens in order: CtBP-E1A inh	D2 potentiator	Six1-Eya2 inh	gsp agonist	gsp antagonist	D2 agonist
Listed for COc1ccccc1N1CCN(S(=O)(=O)c2c(C)[nH]c(C)c2C(=O)N2CCCC2)CC1 → 2	-10	-1	1%	3%	-2.0
Listed for Cc1ccc(NC(=O)c2ccc3c(c2)C(=O)N(Cc2cccnc2)C3=O)c(C)c1 → -6	1	11	10%[15.4 µM]	-6%	-5.5

Next section
#	molecule	CtBP-E1A inh	D2 potentiator	Six1-Eya2 inh	gsp agonist	gsp antagonist	D2 agonist
49	COC(=O)/C(C#N)=C/c1c(N2CCN(c3ccccc3)CC2)nc2c(C)cccn2c1=O	-2	0	-2	?	?	-4.6
50	COc1ccccc1CN1CCNC(=O)C1CC(=O)NCCCN1CCOCC1 (stereo not given)	2	-3	0	18%	·	-5.4
51	CC(=O)N1c2ccc(S(=O)(=O)NCC3CCC(C(=O)NCc4ccc(C)o4)CC3)cc2CC1C (stereo not given)	-1	-5	-3	-67%[inhibitor]	-15%	5.3
52	COc1ccc(NC(=O)Cn2c(-c3ccc(OC)cc3)cn(-c3ccc(C)cc3)c2=O)cc1	-13	0	-6	-43%[inhibitor]	-5%	1.3
53	COC(=O)c1ccc(Nc2cc(C)nc3ccc(C)cc23)cc1	-11	-40	-9	-3%[15.4 µM]	-6%	-3.2
54	CCN(CC)CCCNC(=O)c1sc2ncn(CC(=O)Nc3ccc(C)c(Cl)c3)c(=O)c2c1C	·	-14	9	-56%[inhibitor]	-5%	0.0
55	CN1CCN(C(=O)/C(C#N)=C/c2ccc(OC(F)F)cc2)CC1	-1	-7	2	-13%[15.4 µM]	7%	-2.5
56	O=C(COc1ccccc1)N1CCN(c2ccc([N+](=O)[O-])c(N3CCCCC3)c2)CC1	3	1	?	0%	-9%	6.0
57	CC(C)c1nnc(NC(=O)C2CCCO2)s1 (stereo not given)	·	6	5	?	8%	5.8
58	CC(=O)N1CCN(C(=O)COc2ccc3oc4c(c3c2)CCCC4)CC1	-4	6	-1	-12%	-1%	0.6
59	CCOc1ccc(NS(=O)(=O)c2ccc(C(=O)N3CCCC(C)C3)cc2)cc1 (stereo not given)	1	0	3	2%[15.4 µM]	-6%	-1.7
60	O=C(NCc1ccccc1Cl)C1CCC(=O)N1Cc1ccc(F)cc1 (stereo not given)	·	-11	8	-3%	8%	-0.1
61	O=C(NNc1cccc(Cl)n1)Nc1ccccc1F	-8	5	9	-7%[15.4 µM]	6%	0.9
62	CCSc1nc2c(c(=O)[nH]1)C(c1cccnc1)C(C(=O)OC)=C(C)N2 (stereo not given)	4	23	-2	-9%	6%	2.3

Screening results (PubChem BioAssay)
